High-throughput results deposited in PubChem BioAssay by National Center for Advancing Translational Sciences (NCATS).
ClpP mod – qHTS Assay for Activators of ClpP; ATP-dependent Clp protease proteolytic subunit (Bacillus subtilis (strain 168)), P80244; purified B. subtilis ClpP, FRET peptide cleavage, 20 min; Potency, µM (series often up to 57.5 µM), without a hit: at the highest dose activity change, negative = active; 340,000 compounds, 1.9% hits; AID 651965, 2013; active = well fitted falling curve with a large enough effect; inconclusive = small, poorly fitted or top-dose-only effect; inactive = no such curve, though single readings can be large or run the other way; also: potency is read from the fitted curve at half-maximal effect; the source files actives as falling curves though it sought activators and does not explain the sign; nearly all actives have a fitted effect of over 65% in size; many hits overshoot -100%
Target sequence (P80244 whole entry, looked up): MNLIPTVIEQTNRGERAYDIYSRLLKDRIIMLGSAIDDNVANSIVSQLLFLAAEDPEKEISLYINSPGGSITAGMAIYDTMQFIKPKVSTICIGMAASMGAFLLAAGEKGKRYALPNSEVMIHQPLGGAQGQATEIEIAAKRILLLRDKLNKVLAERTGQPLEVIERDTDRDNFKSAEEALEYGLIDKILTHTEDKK
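Buffer: 100 mM Tris/HCl pH8, 100 mM KCl, 0.05% low protease BSA, 2.5% glycerol, 0.01% Tween-20. ClpP 10 microg/mL final; 20 min RT; delta FRET normalized to ADEP and DMSO controls.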
Sfp PPTase inh – Sfp phosphopantetheinyl transferase inhibition; Q9F4F7; Biochemical Sfp PPTase activity, qHTS; Potency, µM, for inactives: max response, negative = inhibition, most hits filed as inhibitors; 310,000 compounds, 3.5% hits; AID 1490; active = well fitted inhibition curve with a large enough effect; inconclusive = small, poorly fitted or top-dose-only effect, or another doubt; inactive = no such curve, though single readings can be large or run the other way;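 also: the enzyme is Sfp with the accession as filed and its product quenches rhodamine fluorescence; potency is read from the fitted curve at half-maximal effect; 0% = enzyme reaction without inhibitor and -100% = no enzyme wells; top concentration of the series not given in the record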
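Reaction rates are the 30-min fluorescence difference (ex 525, em 598 nm) in wells containing 15 nM Sfp, 5 uM rhodamine-CoA and 12.5 uM BHQ-2-YbbR at pH 7.6 with 10 mM MgCl2.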
TRPV1 PAM – enhances activation of the human vanilloid receptor TRPV1. Q8NER1. TRPV1-expressing cells, Fluo-8 calcium influx, capsaicin EC20 potentiation; host cell line not named in the record; control for the full effect not named in the record. potentiation, % at 8.33 µM. 320,000 compounds, 0.02% hits; active means potentiation above 80%; inconclusive means 30% to 80%; inactive means below 30%; also: 0% is about no effect
Target sequence (Q8NER1 whole entry, looked up): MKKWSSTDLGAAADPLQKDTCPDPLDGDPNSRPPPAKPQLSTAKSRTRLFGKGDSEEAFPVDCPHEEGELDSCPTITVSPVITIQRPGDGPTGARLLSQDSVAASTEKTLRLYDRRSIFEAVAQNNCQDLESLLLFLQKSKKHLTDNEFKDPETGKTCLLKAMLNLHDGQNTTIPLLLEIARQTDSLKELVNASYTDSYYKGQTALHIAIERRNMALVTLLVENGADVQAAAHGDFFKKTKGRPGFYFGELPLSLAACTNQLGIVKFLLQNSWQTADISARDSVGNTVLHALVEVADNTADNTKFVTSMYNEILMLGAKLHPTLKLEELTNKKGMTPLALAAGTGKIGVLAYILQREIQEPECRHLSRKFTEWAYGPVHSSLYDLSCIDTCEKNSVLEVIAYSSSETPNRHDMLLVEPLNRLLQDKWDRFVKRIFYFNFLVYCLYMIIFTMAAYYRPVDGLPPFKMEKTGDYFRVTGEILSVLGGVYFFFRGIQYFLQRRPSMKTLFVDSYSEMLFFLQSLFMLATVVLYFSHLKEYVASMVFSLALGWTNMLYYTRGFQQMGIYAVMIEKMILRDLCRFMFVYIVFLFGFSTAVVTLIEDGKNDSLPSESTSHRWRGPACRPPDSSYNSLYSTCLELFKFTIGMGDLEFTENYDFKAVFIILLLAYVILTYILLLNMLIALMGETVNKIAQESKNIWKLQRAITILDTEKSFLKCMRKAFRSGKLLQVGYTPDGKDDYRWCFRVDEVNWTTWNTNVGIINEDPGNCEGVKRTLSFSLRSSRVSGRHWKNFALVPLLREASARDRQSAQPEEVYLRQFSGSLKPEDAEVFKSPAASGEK
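TRPV1-expressing cells were cultured overnight at 35.5C and loaded with Fluo-8 calcium dye for 40 to 90 min at room temperature. After a 10 s baseline, compound was added and calcium influx was read kinetically for 3 min (ex 480/em 520 nm).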
CtBP-E1A inh – blocks the CtBP interaction with E1A; 340,000 compounds, 0.49% hits; activity change, % (test concentration not listed); AlphaScreen GST-E1A/His-CtBP binding, 1536-well; active compounds read low; control for the full effect not named in the record; in the data active means activity change below about -65%; inconclusive means about -30% to -65%; inactive means above about -30%; also: % is scaled to controls: 0 for no effect and ±100 for the full control effect
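Homogeneous bead-based format: GST-tagged E1A captured on glutathione donor beads, His-tagged CtBP on nickel acceptor beads; compounds precede bead addition by 2 h at 37 °C.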
gsp antagonist – antagonists of gsp mutant (McCune-Albright syndrome); gsp-mutant cells, cAMP HTRF, 30 min; control for the full effect not named in the record; AID 624288; 340,000 compounds, 0.4% hits; Potency, µM (series often up to 76.9 µM), for the others: top-dose activity change, negative = inhibition, most hits filed as inhibitors; active = falling curve of any shape with a large fitted effect; inconclusive = falling curve, mostly with a smaller effect; inactive = flat or rising curve; cell line not stated here;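 also: intracellular cAMP measured with PDE inhibitor Ro 20-1724 present during compound exposure; potency is read from the fitted curve at half-maximal effect; % is scaled to controls: 0 for no effect and ±100 for the full control effect; nearly all actives have a fitted effect of over 65% in size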
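HTRF cAMP read-out (cAMP-d2 plus anti-cAMP antibody-K in lysis buffer, 30 min RT). Before lysis, cells are exposed to compounds with […] for 30 min at 37C in DPBS containing Ca/Mg, BSA and Tween 20.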
gsp agonist – agonists of gsp mutant (McCune-Albright syndrome); Potency, µM (titrated, usually from 76.9 µM), without a hit: top-dose activation (cAMP increase), hits mostly activators; gsp mutant cells, cAMP HTRF, 30 min; control for the full effect not named in the record; 340,000 compounds, 0.13% hits; active = well fitted activation curve with a large enough effect; inconclusive = small, poorly fitted or top-dose-only effect, or another doubt; inactive = no such curve, though single readings can be large or run the other way; cell line not stated here;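 also: phosphodiesterase inhibitor Ro 20-1724 added with compounds to block cAMP breakdown; potency is read from the fitted curve at half-maximal effect; nearly all actives have a fitted effect of over 60% in size; about a fifth of the inactives were tested at one dose only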
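Cells in DMEM/10% FBS with G418 were pretreated with compounds in DMSO plus […] (300 uM stock) for 30 min at 37C. cAMP was measured by HTRF (cAMP-d2 plus anti-cAMP antibody-K) after 30 min at room temperature.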
Menin-MLL FL inh – displaces fluorescein MLL peptide from human menin. Fluorescence polarization, fluorescein-MLL peptide displacement from menin. FP activity change, % at 61.4 µM. 290,000 tested, under 10 active; inconclusive = falling polarisation curve, or a change in total fluorescence; inactive = total fluorescence flat and polarisation flat or rising; no compound was filed as active; the % refers to the polarisation; negative = inhibition;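 also: % of control where 0% means no effect; inhibitors lower the polarisation; unlabelled MLL peptide was the positive control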
* = called active by the depositor; ? = inconclusive; . = no result given; & = joins results of further samples; [ ] = another dose, or the depositor's remark.

SMILES | ClpP mod | Sfp PPTase inh | TRPV1 PAM | CtBP-E1A inh | gsp antagonist | gsp agonist | Menin-MLL FL inh
O=[N+]([O-])c1ccc(-n2nnnc2CN2CCOCC2)cc1 | . | 21% | 4 | 7 | 9% | 9%[15.4 µM] | -3.6
CCSc1ccc2nnc(-c3cccs3)n2n1 | . | 5% | 16 | ? | -1% | 8%[15.4 µM] | 2.4
Cc1cccc(NC(=O)[C@@H]2CCCN2C(=O)OC(C)(C)C)c1 | -1.5% | 17% | 6 | 4 | 8% | 10%[15.4 µM] | .
COc1ccc(C(C)=O)c(Oc2ccc(S(=O)(=O)N3CCOCC3)cn2)c1 | -22% | . | -10 | -13 | 4% | ? | .
COc1ccc(NC(=O)CN(C)C(=O)C(CCSC)NC(=O)c2ccccc2)cc1 (stereo not drawn) | . | 0% | -1 | -4 | 0% | 15%[15.4 µM] | -2.7
COc1ccc(NC(=O)CN2C(=O)/C(=C3\SC(=S)N(CCC(=O)O)C3=O)c3ccccc32)cc1 | -1.5% | 12% | ? | -10 | 5% | -10% | .
O=[N+]([O-])c1cc([N+](=O)[O-])c2c(=Nc3ccccc3)n(-c3ccccc3)n(O)c2c1 | . | ? | 3 | -12 | . | -6%[15.4 µM] | 1.4
COc1cccc(-c2nc(CS(=O)(=O)CC(=O)N3CCOCC3)c(C)o2)c1 | -19% | 6% | -1 | 0 | -7% | -47%[inhibitor] | -8.5
Cc1cc2c(=O)[nH]c(Cc3ccccc3)nc2s1 | 7.5% | 3% | -2 | -12 | 7% | -39%[inhibitor] | -1.3
COc1ccc(CCNc2ccc(C)cc2)cc1 | -0.7% | -4% | 7 | -7 | -7% | -10% | -0.3
COc1ccc(CN2CN(C3CCCC3)CSC2=S)cc1 | -0.5% | -22% | -6 | -2 | 3% | 9%[15.4 µM] | -2.1
COc1ccc(N2CCN(CC(=O)Nc3cc(C)cc(C)c3)CC2)cc1 | -7.9% | 12% | -15 | -28 | -7% | -2% | -3.3
CCOc1ccc(/C(CCC(=O)O)=N/NC(=O)c2cccc(S(=O)(=O)Nc3ccccc3OC)c2)cc1 | . | . | . | 7 | -2% | -5% | .
CCOc1ccccc1NC(=O)Cn1nnc(C(=O)Nc2ccccc2Cl)c1N | -2.8% | 9% | -11 | -1 | 3% | -7%[15.4 µM] | 13
Cc1ccc2c(c1C)NC(=O)CC(c1ccccc1O)=N2 | -1.8% | -8% | ? | -23 | -2% | -4%[15.4 µM] | 4.1
COc1ccc(-c2nnc(SCC(=O)c3cccs3)o2)c(OC)c1 | -3.9% | -5% | -7 | -6 | -2% | -14% | 5.4
COC(=O)c1oc2ccc(Cl)cc2c1NC(C)=O | -30% | 6% | 1 | -3 | -14% | -20% | -0.4
CCOc1cc(/C=N\NC(=O)Cn2nnc3ccccc32)ccc1O | . | 15% | 4 | ? | 2% | -7%[15.4 µM] | 0.6
O=C(Nc1ccc(F)c(Cl)c1)Nc1csc2ccccc12 | . | -19% | -25 | 3 | 35µM* | 8%[15.4 µM] | 4.9
COc1ccccc1N1CCN(C(=O)c2ccc3[nH]c(C)c(C)c3c2)CC1 | -3.3% | -4% | 19 | . | 19% | -28% | 3.7
CN(C)/C(=N\S(=O)(=O)c1ccccc1)c1ccc(Cl)cc1 | 1.9% | 11% | -2 | -7 | 15% | -1% | -0.4
C=CCN(CC=C)C(=O)c1cccc(S(=O)(=O)N2c3ccccc3CC2C)c1 (stereo not drawn) | -3.1% | 13% | -14 | 2 | -13% | 0% | 3.8
CCC(C(=O)NC1CC1)n1nc(C)c2c(C)n(-c3ccccc3)nc2c1=O (stereo not drawn) | -0.9% | 15% | -6 | 8 | 6% | 21% | .
Cn1c(C(=O)N2CCCC(C(=O)NCc3cccs3)C2)cc2sccc21 (stereo not drawn) | 0.8% | -3% | -4 | 15 | -13% | -31% | 3.4
COc1ccccc1OCC(=O)Nc1ccc(N2CCCCC2)cc1 | -2.1% | -23% | 12 | -20 | -7% | 3% | 4.3

(cont.)
SMILES | ClpP mod | Sfp PPTase inh | TRPV1 PAM | CtBP-E1A inh | gsp antagonist | gsp agonist | Menin-MLL FL inh
CCCc1cc(=O)[nH]c(SCC(=O)NCc2ccc3c(c2)OCO3)n1 | . | 20% | -2 | 6 | -3% | -12% | -4.9
Cc1[nH]ccc2cc3nc4ccccc4c3cc12 | 4.0% | . | . | 3 | . | 7% | .
O=C(CC1C(=O)NCCN1Cc1cccc(F)c1)NC1CCCCCC1 (stereo not drawn) | -6.9% | 5% | -2 | 4 | 10% | -2% | .
CCN(CCCNC(=O)CCCN1C(=O)COc2ccc(C)cc21)c1cccc(C)c1 | 0.2% | -3% | 7 | -13 | ? | -9% | 4.0
OCCN(CCO)c1nc(-c2ccccc2)nc2c1oc1ccccc12 | -18% | 9% | 11 | . | -15% | 23% | -4.9
O=C(Nc1ccc(S(=O)(=O)N2CCc3ccccc32)cc1)C(F)(F)F | -5.2% | 12% | 0 | 8 | -12% | 3%[15.4 µM] | -1.4
S=c1nc(-c2csc3c2CCCC3)[nH][nH]1 | 3.4% | 35µM* | 11 | -2 | 2% | ? | -2.7
O=S(=O)(Cc1ccccc1)Nc1ccc(Br)cn1 | . | 33%[activator] | 1 | -12 | 0% | -6% | -2.7
CC(C)C[C@@H](CN)NC(=O)c1nc[nH]c1C(=O)N[C@@H](C)C(=O)CNC[C@H](CC(C)C)NC(=O)c1nc[nH]c1C(=O)N[C@@H](CC(=O)O)C(=O)O | 0.4% | . | . | -13 | 10% | . | .
CN(C)S(=O)(=O)c1ccc(N2CCCC2)c(C(=O)Nc2ccccc2N2CCOCC2)c1 | -3.0% | 16% | -3 | -7 | 13% | -52%[inhibitor] | 0.3
Nc1nonc1-n1nnc(C(=O)N/N=C/c2ccc(F)cc2)c1-c1cccs1 | -7.9% | 11% | 0 | -4 | -3% | -37%[inhibitor] | .
NC(=O)COC(=O)c1ccc2noc(-c3ccccc3)c2c1 | -6.1% | -10% | 11 | 18 | -36% | 27% | 10
CCOC(=O)Cn1cc(/C=C(\C#N)C(=O)N2CCOCC2)c2ccccc21 | 0.2% | 18% | -20 | -3 | -4% | -3%[15.4 µM] | 9.0
COc1cc(/C=N/n2c(C)n[nH]c2=S)ccc1OCc1ccc(F)cc1 | -16% | -24% | 16 | -9 | -17% | -9% | 1.8
CC(=O)N1CCN(C(=O)c2ccc(OC3CCN(CCc4ccccc4)CC3)cc2)CC1 | 0.8% | 15% | -7 | 0 | 5% | 6% | 2.0
CC1(O)c2ccccc2C(=O)N1CCc1ccccc1F (stereo not drawn) | -2.4% | 7% | -25 | 7 | 5% | -2% | 1.0
CC(C)(C)OC(=O)NCCc1nnc(SCC(=O)Nc2cccc(Cl)c2)o1 | -1.3% | 13% | 13 | 2 | -10% | -14% | 0.5
CCOC(=O)/C(=C/Nc1ccccc1)[N+](=O)[O-] | -16% | 1% | -14 | 6 | 11% | -12% | 1.9
Cc1ccc(NC(=O)CN2C(=O)S/C(=C\c3ccccn3)C2=O)cc1 | 1.5% | -17% | 10 | . | 3% | 1% | 1.2
COC(=O)[C@@H]1C[C@@]2(O)[C@H](O)[C@H](O)[C@H](O)C[C@H]2N1Cc1cc(F)ccc1F | -4.4% | 11%&4% | -11 | 0 | 11% | 0% | -4.6&-2.8
Cc1cc(C)c(NC(=S)N2CCCC2C(=O)O)c(C)c1 (stereo not drawn) | 0.7% | 35µM* | -2 | -2 | 13% | -15% | 4.1
Cc1nnc(SCC(=O)Nc2ccc(O)cc2)c2ccccc12 | . | 7% | 4 | -3 | -2% | 26% | -3.7
CNC(=S)NNC(=O)c1sccc1OCc1cccc(C(F)(F)F)c1 | 0.1% | -23% | 15 | -8 | 5% | -22% | 3.6
C#CCOCCOCCOCCNc1nc(N2CCN(C(=O)[C@H]([C@@H](C)CC)n3cc([C@@H](N)CO)nn3)CC2)nc(N2CCN(C(=O)[C@H]([C@@H](C)CC)n3cc([C@@H](N)CO)nn3)CC2)n1 | . | -16% | 28 | . | . | . | -0.4
CCn1c(SCC(=O)c2ccccc2)nc2ccccc2c1=O | . | -12% | 12 | 1 | -14% | 25%[15.4 µM] | 12

Remaining list, next part:
SMILES | ClpP mod | Sfp PPTase inh | TRPV1 PAM | CtBP-E1A inh | gsp antagonist | gsp agonist | Menin-MLL FL inh
Fc1cc2[nH]c(=S)[nH]c2cc1Cl | . | 8% | -27 | 4 | 0% | 4%[15.4 µM] | 0.8
CCOc1ccc(C(c2c(NC(=O)c3ccco3)sc(C)c2C)N2CCOCC2)cc1 (stereo not drawn) | ? | . | 1 | 3 | -24% | 7% | .
COc1ccccc1C(=O)NNC(=O)C1CCCO1 (stereo not drawn) | . | 19% | -1 | -2 | 8% | -26%[15.4 µM] | 2.0
Cc1ccc([C@@H]2[C@@H]3C(=O)N(c4ccccc4)C(=O)[C@@H]3[C@]3(C)C(=O)N(Cc4ccc(-c5ccccc5)cc4)CC(=O)N23)o1 | 1.5% | ? | ? | 0 | 2% | -1% | -2.5
O=C(COc1ccc(Br)cc1)NN1C(=O)c2ccccc2C1=O | . | . | . | 5 | -9% | 8%[15.4 µM] | .
C#CCN(C[C@H]1[C@H](OC(=O)NC2CCCC2)[C@H](OC(=O)NC2CCCC2)C[C@@H](C(=O)OC)[C@H]1C(=O)OC)S(=O)(=O)c1ccc(C)cc1 | -1.5% | . | . | -2 | . | -17% | .
CCn1c(SCC(=O)Nc2ccc(N(C)C)cc2)nnc1-c1cccc(C)c1 | 0.8% | -5% | -20 | 0 | -17% | -33% | 4.0
Cc1cccc(C)c1OCc1nnc(SCC(=O)Nc2nccs2)o1 | -0.9% | -5% | 14 | -91* | -6% | -5% | 9.6
CCCC(c1nnnn1Cc1cccs1)N1CCN(C)CC1 (stereo not drawn) | . | -10% | 0 | -12 | 9% | 19%[15.4 µM] | -1.0
